Compound activity from PubChem.
PV pol inh = inhibitors of poliovirus RNA polymerase binding and polymerization; P03300; poliovirus polymerase elongation, fluorescence polarization; stronger effect = lower value; AID 588519; 150,000 tested, 0.66% active; % elongation, % (compound at 16.7 µg/mL); in the data active = % elongation below about 90%; also: some results filed as inactive read as strong as hits
Target sequence (P03300 1749-2209 limits assumed): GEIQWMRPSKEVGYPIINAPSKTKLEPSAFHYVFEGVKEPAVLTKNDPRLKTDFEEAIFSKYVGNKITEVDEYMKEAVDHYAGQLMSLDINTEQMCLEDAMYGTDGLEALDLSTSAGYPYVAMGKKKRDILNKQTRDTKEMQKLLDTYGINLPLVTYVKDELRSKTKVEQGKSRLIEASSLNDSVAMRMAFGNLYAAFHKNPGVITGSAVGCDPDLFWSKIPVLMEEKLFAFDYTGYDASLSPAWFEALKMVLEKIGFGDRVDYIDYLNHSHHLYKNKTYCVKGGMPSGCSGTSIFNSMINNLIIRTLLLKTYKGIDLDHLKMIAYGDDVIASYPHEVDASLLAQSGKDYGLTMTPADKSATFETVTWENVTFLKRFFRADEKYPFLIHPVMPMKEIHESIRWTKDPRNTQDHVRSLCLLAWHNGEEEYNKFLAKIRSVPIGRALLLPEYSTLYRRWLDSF
PV pol inh intensity = recorded beside PV pol inh, whose call it bears; % elongation; measured here: total intensity read-out; formula for this scale not given here;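 total fluorescence in place of polarization; lower means less elongation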
The depositor's hits bear a star. These rows are one share of the data; the hit share may differ from the screen's.

| entry | molecule | PV pol inh | PV pol inh intensity |
| --- | --- | --- | --- |
| 1 | O=C(NC1CCCC1)c1ccc2c(c1)N(Cc1ccccc1F)C(=O)c1ccccc1S2 | 109.0 | 114.0 |
| 2 | CSc1cccc(Nc2nc3c(S(=O)(=O)c4ccccc4)nnn3c3ccc(Cl)cc23)c1 | 103.0 | 106.0 |
| 3 | Cc1ccc(Cn2c(=O)n(-c3cc(C)cc(C)c3)c(=O)c3oc4ccccc4c32)cc1 | 108.0 | 108.0 |
| 4 | Cc1ccc(CNC(=O)C(C)n2c(=O)cc(C(F)(F)F)c3c(C)nn(C)c32)cc1 (configuration not stated) | 99.0 | 102.0 |
| 5 | Cc1ccc(OCc2cc(=O)n3cc(C)sc3n2)c(NC(=O)c2ccco2)c1 | 108.0 | 110.0 |
| 6 | CCc1ccc(NC(=O)CSc2nc(-c3ccc(C)cc3)nc3c2Cc2c(CO)cnc(C)c2O3)cc1 | 107.0 | 97.0 |
| 7 | O=C(Cn1nnc2sc3c(c2c1=O)CCCC3)Nc1ccc(F)c(Cl)c1 | 106.0 | 106.0 |
| 8 | COc1cc(NC(=O)c2cccc(Cl)c2Cl)ccc1NC(=O)c1cc2ccccc2o1 | 107.0 | 107.0 |
| 9 | COC(=O)c1ccccc1NC(=O)c1cc2c(s1)-c1ccccc1OC2 | 105.0 | 102.0 |
| 10 | COc1cc(NC(=O)CSc2nnc(C)n3c2cc2oc(C)cc23)cc(OC)c1 | 110.0 | 114.0 |
| 11 | O=C(NCCCN1CCN(c2cccc(Cl)c2)CC1)c1sc2ncccc2c1-n1cccc1 | 109.0 | 112.0 |
| 12 | COC(=O)c1c(NC(=O)CS(=O)(=O)c2ccc(C)cc2)sc2c1CCCCC2 | 102.0 | 106.0 |
| 13 | CCCSc1oc(-c2cccs2)nc1S(=O)(=O)c1ccc(Cl)cc1 | 107.0 | 110.0 |
| 14 | COc1ccc(-n2ncc(C(=O)Nc3ccc4c(c3)OCO4)c2C2CCN(C(=O)OC(C)(C)C)CC2)cc1 | 108.0 | 107.0 |
| 15 | COc1cc2[nH]c(=O)n(CCCC(=O)NCc3ccccc3Cl)c(=O)c2cc1OC | 107.0 | 105.0 |
| 16 | O=C(Nc1ccccc1F)C(Cc1ccccc1)N1Cc2ccccc2C1=O (configuration not stated) | 111.0 | 112.0 |
| 17 | C=CCc1ccccc1OCc1nc2ccc(C)cc2[nH]1 | 112.0 | 106.0 |
| 18 | CCOc1ccc(NC(=O)CSc2nc(-c3cccc(Cl)c3)nc3c2Cc2c(CO)cnc(C)c2O3)cc1 | 101.0 | 103.0 |
| 19 | CCC(CC)C(=O)Nc1ccc(OCc2cc(=O)n3ccsc3n2)cc1 | 112.0 | 114.0 |
| 20 | COc1ccccc1CCNC(=O)c1cccn1-c1nnc(N2CCCC2)s1 | 107.0 | 106.0 |
| 21 | COc1ccc(-c2cc(C(F)(F)F)nc(S(=O)(=O)CCCC(=O)Nc3ccccc3C(F)(F)F)n2)cc1OC | 106.0 | 108.0 |
| 22 | CCC(Oc1ccccc1)C(=O)Nc1nnc(S(=O)(=O)N2CCCC2)s1 (configuration not stated) | 115.0 | 106.0 |
| 23 | CCOc1ccccc1CNS(=O)(=O)c1ccc(-c2cnc(C3CC3)o2)cc1 | 98.0 | 100.0 |
| 24 | Cc1ccc(C)c(NC(=O)CSc2nc3nccnc3c(=O)n2CCc2c[nH]c3ccccc23)c1 | 108.0 | 110.0 |
| 25 | CCSc1ncc(Cl)c(C(=O)Nc2ccc(S(=O)(=O)N3CCC(C)CC3)cc2)n1 | 117.0 | 113.0 |

Molecules listed so far containing two or more sulfur atoms (5):
| entry | molecule | PV pol inh | PV pol inh intensity |
| --- | --- | --- | --- |
| 2 | CSc1cccc(Nc2nc3c(S(=O)(=O)c4ccccc4)nnn3c3ccc(Cl)cc23)c1 | 103.0 | 106.0 |
| 12 | COC(=O)c1c(NC(=O)CS(=O)(=O)c2ccc(C)cc2)sc2c1CCCCC2 | 102.0 | 106.0 |
| 13 | CCCSc1oc(-c2cccs2)nc1S(=O)(=O)c1ccc(Cl)cc1 | 107.0 | 110.0 |
| 22 | CCC(Oc1ccccc1)C(=O)Nc1nnc(S(=O)(=O)N2CCCC2)s1 (configuration not stated) | 115.0 | 106.0 |
| 25 | CCSc1ncc(Cl)c(C(=O)Nc2ccc(S(=O)(=O)N3CCC(C)CC3)cc2)n1 | 117.0 | 113.0 |

Returning to the listing; the 2 compounds before the break are reprinted first.
| entry | molecule | PV pol inh | PV pol inh intensity |
| --- | --- | --- | --- |
| 24 | Cc1ccc(C)c(NC(=O)CSc2nc3nccnc3c(=O)n2CCc2c[nH]c3ccccc23)c1 | 108.0 | 110.0 |
| 25 | CCSc1ncc(Cl)c(C(=O)Nc2ccc(S(=O)(=O)N3CCC(C)CC3)cc2)n1 | 117.0 | 113.0 |
| 26 | CCOc1ccccc1NC(=O)c1sc(-n2nc(C)c(CCC(C)C)c2C)nc1C | 101.0 | 105.0 |
| 27 | Cc1cccc(OCCSc2nc(-c3cccs3)nc3cc(=O)[nH]n23)c1 | 103.0 | 102.0 |
| 28 | Cc1nn(C(C)C(=O)N2CCN(c3ccc(Cl)cc3)CC2)c(=O)c2cc3occc3n12 (configuration not stated) | 102.0 | 107.0 |
| 29 | O=C(Nc1ccc2nn(-c3ccc(F)cc3)nc2c1)c1cccc2c(Cl)cccc12 | 105.0 | 106.0 |
| 30 | CCC(=O)N1CCc2cc(S(=O)(=O)NC(C(=O)Nc3cc(OC)cc(OC)c3)C(C)C)ccc21 (configuration not stated) | 100.0 | 98.0 |
| 31 | COc1ccc(CNC(=O)C2CCCN(C(=O)N3CCOc4ccccc43)C2)cc1 (configuration not stated) | 100.0 | 94.0 |
| 32 | CCn1cnc2cc(NCc3ccc(N(C)C)cc3)ccc21 | 106.0 | 110.0 |
| 33 | CCOC(=O)c1c(C)c(-c2ccccc2)n(CC(=O)Nc2cc(C)ccc2OC)c1C | 103.0 | 104.0 |
| 34 | Cc1cccc(-c2noc(-c3cc(C(C)C)[nH]n3)n2)c1 | 114.0 | 112.0 |
| 35 | CCOc1ccccc1CNC(=O)CN1C(=O)CSc2ccc(S(=O)(=O)N3CCOCC3)cc21 | 106.0 | 109.0 |
| 36 | Cc1ccc2c(c1)cc1c(=O)n(Cc3ccccc3Cl)nc(C)n12 | 109.0 | 111.0 |
| 37 | CCOc1ccccc1C(=O)NC1(C(F)(F)F)C(=O)Nc2c1c(=O)[nH]c(=O)n2-c1ccc(F)cc1 (configuration not stated) | 108.0 | 110.0 |
| 38 | CC(C)c1ccc(NC(=O)Cn2nnc(C(=O)NCCc3ccccc3)c2N)cc1 | 100.0 | 102.0 |
| 39 | Cc1ccc(-c2nc(NC(=O)CSc3cc(C)c4ccccc4n3)ns2)cc1 | 104.0 | 106.0 |
| 40 | Cn1c(=NC(=O)c2ccc(F)cc2)sc2cc(Br)ccc21 | 109.0 | 114.0 |
| 41 | Cc1cc(C)cc(-n2c(C)cc(C(=O)C(=O)Nc3ccccc3F)c2C)c1 | 110.0 | 115.0 |
| 42 | Cc1nn2c(=O)cc(COC(=O)c3ccccc3NC(=O)c3ccccc3C)nc2s1 | 105.0 | 100.0 |
| 43 | CCCCOc1ccc(CNC(=O)c2cnc3sc(N4CCOCC4)nn3c2=O)cc1 | 112.0 | 111.0 |
| 44 | COc1ccc(C(CC(=O)Nc2cccc(C)c2C)N2Cc3ccccc3C2=O)cc1 (configuration not stated) | 101.0 | 104.0 |
| 45 | COc1cccc(CNC(=O)C2CCN(Cc3cc4ccccc4n3Cc3ccccc3)CC2)c1OC | 114.0 | 106.0 |
| 46 | Cc1cc2nnc(SCC(=O)Nc3ccc(F)c(Cl)c3)n2c2ccccc12 | 106.0 | 110.0 |
| 47 | CCCCNC(=O)c1nn(-c2ccc(C)cc2)c(=O)c2c1c1ccccc1n2C | 107.0 | 105.0 |
| 48 | CCOc1ccc(NC(=O)N2CCC(c3ccc(C)cc3)C2)cc1 (configuration not stated) | 99.0 | 112.0 |
| 49 | Cc1ccc(CNC(=O)c2cn(C)c3ccc(S(=O)(=O)N4CCC(C)CC4)cc3c2=O)cc1 | 103.0 | 105.0 |
| 50 | CC(CNC(=O)c1nnc(Cc2ccc(F)cc2)o1)c1ccccc1 (configuration not stated) | 99.0 | 104.0 |
| 51 | Cc1ccc(-n2c(=O)c3oc4ccccc4c3n(Cc3ccccc3)c2=O)cc1C | 109.0 | 104.0 |
| 52 | Cc1cccc(Nc2nc3c(S(=O)(=O)c4ccc(Br)cc4)nnn3c3ccsc23)c1C | 98.0 | 105.0 |
| 53 | COC(=O)c1ccccc1NC(=O)CN1C(=O)COc2ccc(Cl)cc21 | 105.0 | 106.0 |
| 54 | COc1ccc(CNC(=O)c2cc(Nc3ccc(C)cc3C)nc3ccccc23)cc1 | 106.0 | 107.0 |
| 55 | CCS(=O)(=O)N1CCCc2cc(C(=O)Nc3cccc(C(C)=O)c3)ccc21 | 107.0 | 103.0 |
| 56 | CCc1ccc(NC(=O)c2ccc(F)c(S(=O)(=O)N3CCN(c4cc(C)ccc4C)CC3)c2)cc1 | 107.0 | 109.0 |
| 57 | Cc1nc(SCC(=O)Nc2ccc(Cl)cc2C(F)(F)F)[nH]c(=O)c1Cc1ccccc1 | 107.0 | 111.0 |
| 58 | O=C(CN1C(=O)C2(SCC(=O)N2c2ccc(F)c(F)c2)c2ccccc21)Nc1cccc(Cl)c1 (configuration not stated) | 105.0 | 113.0 |
| 59 | COc1ccc(-c2nc(SCC(=O)Nc3ccc4c(c3)OCO4)c(-c3ccc(OC)cc3)[nH]2)cc1 | 110.0 | 111.0 |
| 60 | Cc1ncc(CO)c2c1Oc1nc(-c3ccc(F)cc3)nc(SCc3ccc(F)cc3Cl)c1C2 | 103.0 | 106.0 |
| 61 | Cc1ccccc1CN1c2ccccc2-c2nc(SCC(N)=O)ncc2S1(=O)=O | 111.0 | 111.0 |
| 62 | COc1cc(C(=O)Nc2ccccc2-c2nc(-c3ccc(C)cc3)no2)cc(OC)c1OC | 110.0 | 111.0 |
| 63 | CCc1nn2c(=O)c(S(=O)(=O)Nc3ccc(OC)c(Cl)c3)c(C)nc2s1 | 102.0 | 103.0 |
| 64 | O=C(Nc1cccc(Cl)c1)c1ccc2nc(Cc3ccccc3)oc2c1 | 111.0 | 114.0 |
| 65 | CCOc1ccc(S(=O)(=O)Nc2ccc3c(c2)c(C(C)=O)c(C)n3S(=O)(=O)c2ccc(OCC)cc2)cc1 | 100.0 | 102.0 |
| 66 | Cc1cccc(NC(=O)CSc2nc(-c3cccs3)cc(C(F)(F)F)c2C#N)c1 | 102.0 | 105.0 |
| 67 | CCOc1ccc(CNC(=O)CSc2nnc(C)c3c(C)n(-c4ccc(Cl)cc4)nc23)cc1 | 111.0 | 105.0 |
| 68 | COc1ccc(C)cc1NC(=O)C(=O)NCCc1csc(-c2ccc(C)cc2)n1 | 107.0 | 110.0 |
| 69 | Nc1c(C(=O)Nc2ccc(Cl)cc2)sc2nc3c(cc12)N1CCC3CC1 | 103.0 | 104.0 |
| 70 | COc1ccccc1CNC(=O)CCNS(=O)(=O)c1cccc2nsnc12 | 105.0 | 108.0 |
| 71 | CCOC(=O)c1cccc(NC(=O)NCc2ccc3c(c2)CCN3C(=O)CC)c1 | 110.0 | 109.0 |
| 72 | COc1ccc(CNC(=O)CCCc2cn(C)c3ccccc23)c(OC)c1 | 110.0 | 113.0 |
| 73 | COc1ccc(CNC(=O)CCC2N=C3c4ccccc4N=C(SCc4ccc(F)cc4)N3C2=O)cc1 (configuration not stated) | 104.0 | 110.0 |
| 74 | Cc1cccc(OCCn2c(SCC(N)=O)nc3ccccc32)c1 | 109.0 | 107.0 |
| 75 | CCOc1ccc(OCC)c(Nc2ccc3cc(S(=O)(=O)N4CCCC4)ccc3n2)c1 | 103.0 | 105.0 |

From compound 73 up to 75, as listed above:
| entry | molecule | PV pol inh | PV pol inh intensity |
| --- | --- | --- | --- |
| 73 | COc1ccc(CNC(=O)CCC2N=C3c4ccccc4N=C(SCc4ccc(F)cc4)N3C2=O)cc1 (configuration not stated) | 104.0 | 110.0 |
| 74 | Cc1cccc(OCCn2c(SCC(N)=O)nc3ccccc32)c1 | 109.0 | 107.0 |
| 75 | CCOc1ccc(OCC)c(Nc2ccc3cc(S(=O)(=O)N4CCCC4)ccc3n2)c1 | 103.0 | 105.0 |

Look-ups from above.
In PV pol inh intensity, Cc1cccc(NC(=O)CSc2nc(-c3cccs3)cc(C(F)(F)F)c2C#N)c1 is entered as 105.0
In PV pol inh intensity, COc1ccc(-c2nc(SCC(=O)Nc3ccc4c(c3)OCO4)c(-c3ccc(OC)cc3)[nH]2)cc1 is entered as 111.0
In PV pol inh intensity, CCc1ccc(NC(=O)c2ccc(F)c(S(=O)(=O)N3CCN(c4cc(C)ccc4C)CC3)c2)cc1 is entered as 109.0
In PV pol inh intensity, O=C(Nc1cccc(Cl)c1)c1ccc2nc(Cc3ccccc3)oc2c1 is entered as 114.0
In PV pol inh, Cc1cccc(OCCn2c(SCC(N)=O)nc3ccccc32)c1 is entered as 109.0

Later entries.
| entry | molecule | PV pol inh | PV pol inh intensity |
| --- | --- | --- | --- |
| 76 | CCCCOc1ccc(Cn2c(=O)sc3ccccc32)cc1 | 108.0 | 110.0 |
| 77 | COc1ccc(OC)c(CNC(=O)CCS(=O)(=O)c2ccc3c(c2)oc(=O)n3C)c1 | 109.0 | 113.0 |
| 78 | Cc1c(Cl)cccc1-n1c(CCC(=O)O)ccc1-c1cccs1 | 114.0 | 118.0 |
| 79 | CC(CNC(=O)Cn1ncc2c3ccccc3n(Cc3cccc(Cl)c3)c2c1=O)c1ccccc1 (configuration not stated) | 142.0 | 162.0 |
| 80 | O=C(Nc1sc2c(c1C(=O)Nc1cccc(Cl)c1)CCCC2)c1cccs1 | 77.0* | 79.0* |
| 81 | Cc1cc(C)n2c(Nc3ccc(Cl)cc3)c(-c3ccsc3)nc2n1 | 102.0 | 99.0 |
| 82 | COc1cc(NC(=O)c2nc3ccccc3nc2C)cc(OC)c1OC | 112.0 | 114.0 |
| 83 | Cc1cc(C)c(Cn2c3ccccc3c3cnn(CC(=O)NCc4cccs4)c(=O)c32)c(C)c1 | 106.0 | 106.0 |
| 84 | Cc1ccc(CSc2nc3ccc(NC(=O)COc4ccccc4F)cc3s2)cc1 | 108.0 | 114.0 |
